2A StopGo = FMDV 2A StopGo reporter, luciferase signal | human cells with a luciferase reporter of 2A StopGo recoding; control for the full effect not named in the record | Potency, µM (titrated, usually from 57.9 µM), for inactives: at the top dose signal change, negative = less light | 410,000 compounds, 1.2% hits; active = well fitted falling curve with a large enough effect; inconclusive = small, poorly fitted or top-dose-only effect; inactive = no such curve, though single readings can be large or run the other way; tested in HEK293T cells; also: % is scaled to controls: 0 for no effect and ±100 for the full control effect; nearly all actives have a fitted effect of over 45% in size; luciferase light after 4 h
Lassa entry inh = inhibitors of Lassa virus binding or cell entry; Lassa virus pseudotype entry inhibition, cell reporter; control for the full effect not named in the record; Potency, µM (series often up to 37.9 µM), for the others: top-dose activity change, negative = inhibition, actives largely listed as inhibitors; 300,000 compounds, 1.2% hits; AID 540256; active means well fitted inhibition curve with a large enough effect; inconclusive means small, poorly fitted or top-dose-only effect, or effect the other way; inactive means flat fitted curve, though single readings scatter; tested in HEK293 cells; also: % is scaled to controls: 0 for no effect and ±100 for the full control effect; nearly all actives have a fitted effect of over 50% in size; luciferase read-out
RE007 growth inh = less growth of the S. pombe RE007 Vpr strain | S. pombe RE007 Vpr strain, BacTiter-Glo ATP luminescence, 24 h; control for the full effect not named in the record | Potency, µM (doses to about 92.2 µM), inactives show at the top dose activity change, negative = less growth | 360,000 compounds, 0.21% hits; active = well fitted falling curve with a large enough effect; inconclusive = small, poorly fitted or top-dose-only effect; inactive = no such curve, though single readings can be large or run the other way;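 also: % is scaled to controls: 0 for no effect and ±100 for the full control effect; nearly all actives have a fitted effect of over 50% in size; the assay follows cell death caused by Vpr and the record does not say whether a fall means rescue or toxicity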
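Fission yeast RE007 carrying one integrated HIV-1 vpr copy, seeded at OD 0.01 in PMG+AL medium with 23 nL pinned compound. Grown 24 h at 30 degrees; viability read by BacTiter-Glo luminescence after 5 min.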
Cruzain noTriton = inhibitors of Trypanosoma cruzi cruzain without detergent | P25779 | purified cruzain, Z-FR-AMC fluorescence, no detergent | AID 1476 | 200,000 compounds, 2.3% hits | Potency, µM, without a hit: max response, negative = inhibition, usual class: inhibitors; active = well fitted curve in the direction sought with a large enough effect; inconclusive = small, poorly fitted or top-dose-only effect, or another doubt; inactive = no such curve, though single readings can be large; an effect the other way counts as inactive or inconclusive;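 also: plate controls were enzyme without inhibitor for no effect and buffer without enzyme for full effect; nearly all actives have a fitted effect of over 40% in size; top concentration of the series not given in the record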
Target sequence (P25779 123-467 limits assumed): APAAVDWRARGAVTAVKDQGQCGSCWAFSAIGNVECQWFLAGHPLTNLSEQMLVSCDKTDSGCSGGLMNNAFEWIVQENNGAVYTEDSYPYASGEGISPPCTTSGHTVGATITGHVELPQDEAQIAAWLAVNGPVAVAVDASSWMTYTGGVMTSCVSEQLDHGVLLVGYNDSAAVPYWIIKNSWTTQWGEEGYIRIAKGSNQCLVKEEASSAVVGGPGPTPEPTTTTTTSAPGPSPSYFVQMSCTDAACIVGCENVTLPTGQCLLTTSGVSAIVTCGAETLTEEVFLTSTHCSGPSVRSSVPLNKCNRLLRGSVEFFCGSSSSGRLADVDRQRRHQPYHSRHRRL
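Purified cruzain at 1.5 nM, pre-incubated 15 min with compound at room temperature in 100 mM sodium acetate pH 5.5, 5 mM DTT, 0.00005% Triton X-100. Reaction started with 2 uM Z-FR-AMC; AMC fluorescence increase over 60 s gives rate.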
SARS PLP yeast = SARS-CoV PLP inhibition in yeast; 330,000 compounds, 0.19% hits; S. cerevisiae expressing SARS-CoV PLpro, growth rescue; control for the full effect not named in the record; Potency, µM (series often up to 32.9 µM), without a hit: top-dose activity, positive = growth rescue; AID 485353; also: 0% is about no effect; nearly all actives have a fitted effect of over 55% in size; growth read by luminescence after 48 h
NS1 function inh = influenza NS1 inhibition; 270,000 compounds, 0.4% hits; S. cerevisiae slowed by influenza A NS1, growth recovery by OD600; Potency, µM (highest dose often 46.1 µM), for the others: at the highest dose activity, positive = more growth; also: actives are rising curves; nearly all actives have a fitted effect of over 50% in size
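Recovery from NS1-induced slow growth read by OD600 in budding yeast switched to galactose assay medium (pH 6.0, -URA) at 1:100 dilution. Compound 23 nl per well; the matching strain lacking NS1 serves as control.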
Cruzain inh Det = blocks cruzain activity in presence of Triton detergent; P25779; purified cruzain, Z-FR-AMC fluorescence, 0.01% Triton; Potency, µM, for inactives: max response, negative = inhibition, most hits filed as inhibitors; 200,000 compounds, 0.43% hits; active = well fitted curve in the direction sought with a large enough effect; inconclusive = small, poorly fitted or top-dose-only effect, or another doubt; inactive = no such curve, though single readings can be large; an effect the other way counts as inactive or inconclusive;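 also: plate controls were neutral wells for no effect and buffer without enzyme for full effect; nearly all actives have a fitted effect of over 40% in size; top concentration of the series not given in the record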
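Steps: dispense cruzain (1.5 nM final) in acetate buffer pH 5.5 with DTT and 0.01% Triton X-100; pin-transfer compounds; incubate 15 min RT; add Z-FR-AMC (2 uM final); read fluorescence every 30 s, using the 60 s intensity change.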
MARV entry inh = blocks Marburg virus binding to or entry into cells. Marburg virus pseudotyped entry inhibition, cell reporter; control for the full effect not named in the record; about a third of the inactives were read at about 46 µM. Potency, µM (doses to about 37.8 µM), for inactives: top-dose activity change, negative = inhibition, most hits filed as inhibitors. 300,000 compounds, 1.8% hits; active = well fitted inhibition curve with a large enough effect; inconclusive = small, poorly fitted or top-dose-only effect, or effect the other way; inactive = flat fitted curve, though single readings scatter; tested in HEK293 cells; about a fifth of its hits are not listed in these tables; also: % is scaled to controls: 0 for no effect and ±100 for the full control effect; luciferase read-out
* = called active by the depositor; u = inconclusive; x = no result given; & = joins results of further samples; [ ] = dose if it differs, or a comment. Unless noted, calls follow the shape of the dose curve; as a rule, active means well fitted rising curve with a large enough effect; inconclusive means small, poorly fitted or top-dose-only effect; inactive means no such curve, though single readings can be large or run the other way. Potency is read from the fitted curve at half-maximal effect.

SMILES	2A StopGo	Lassa entry inh	RE007 growth inh	Cruzain noTriton	SARS PLP yeast	NS1 function inh	Cruzain inh Det	MARV entry inh
CN(C)CCCNc1c2ccccc2nc2ccccc12	-30%	u	-13%	x	-6%	-62%	x	5.6µM*
CCc1nnc(N2C(=O)c3ccccc3C2(O)c2ccccc2)s1 (stereo not drawn)	-12%	8%	-2%	x	-1%	-2%	x	5%[46.1 µM]
CC(C)CN1CCN(Cc2nc(C(C)C)cs2)CC1CCO (stereo not drawn)	-26%	x	2%	x	0%	1%	x	22%[46.1 µM]
COc1ccc(CCNC(=O)CSCc2ccc(F)cc2)cc1OC	-24%	16%	4%	-1%	23%	5%	-2.0%	11%
CCCCN(C)CCN1C(=O)C2C(C(=O)Nc3ccc(Cl)cc3)C3C=CC2(O3)C1C(=O)NC1CCCCC1 (stereo not drawn)	-12%	0%[46.1 µM]	5%	x	11%	2%	x	u
COc1ccc(-c2cc3cc(OC)c(OC)cc3cn2)cc1OC	18%	-6%	30%	x	x	x	x	13%[14.2 µM]
COc1ccc(OC)c(C(=O)c2ccc(C(=O)N3CCN(Cc4csc(C)n4)CC3)cc2)c1	u	-25%	-8%	x	0%	1%	x	-16%[46.1 µM]
CSc1nc(C)cc(C)c1C(N)=O	5%	-1%	-1%	-2%	1%	2%	0.9%	4%
COc1ccc(NS(=O)(=O)c2cc3c(cc2C)N(C(C)=O)CCO3)cc1	50%&65%[activator]	-24%[46.1 µM]	-12%	3%	-1%	8%	-2.7%	x
Cc1cccc(C)c1NC(=O)C(Cl)C(=O)c1ccccc1 (stereo not drawn)	-2%	-7%	5%	x	-13%	-125%	x	4%[46.1 µM]
Clc1ccccc1NN(Cc1ccccn1)c1ccccc1Cl	u	x	-29%	-7%	x	-18%	-2.1%	x
CC(C)(C)c1cnnn1-c1ccc(NC(=O)c2ccc3c(c2)OCO3)cc1	0%	9%	3%	-8%	-4%	-68%	-1.9%	-2%
Cc1c(C(=O)O)sc(=S)n1-c1ccccc1	6%	8%	12%	-6%	0%	-6%	2.8%	-11%&-11%[46.1 µM]
Cn1nnnc1SCC(=O)Nc1sccc1C(N)=O	-13%	-13%	0%	x	9%	x	x	-4%
O=C(CSc1nc2ccccc2[nH]1)Nc1nc(-c2ccccc2)c(-c2ccccc2)o1	-10%	21%	3%	2%	u	8%	-5.0%	-1%
O=S(=O)(c1cccc(C(F)(F)F)c1)N1CCCC1c1cccnc1 (stereo not drawn)	-20%	-1%	1%	x	0%	1%	x	7%[46.1 µM]
COc1ccc(N2C(=O)CC(N3CCC(O)(c4ccc(Cl)cc4)CC3)C2=O)cc1 (stereo not drawn)	-21%	10%	u	-6%	-23%	-1%	2.9%	12%
c1ccc(-c2noc(-c3cccc4ccccc34)n2)cc1	50%[activator]	u	-20%	-20%	-15%	-16%	-11%	-21%
COC(=O)CCCCC1SCC2NC(=O)NC21 (stereo not drawn)	2%	-1%	-9%	x	-1%	-8%	x	15%[46.1 µM]
CCOC(=O)c1[nH]c(C)c(C(=O)OCC(=O)N2c3ccccc3CC2C)c1C (stereo not drawn)	-9%	-42%[14.3 µM]	-16%	9%	1%	10%	3.8%	7%
O=C(CCSc1ccccc1)N1CCN(C(=O)c2ccco2)CC1	48%[activator]	-35%	-11%	-3%	0%	-15%	3.7%	u
CCC1CN(S(=O)(=O)c2cc(-c3onc(C)c3C)ccc2C)c2cc(Cl)ccc2O1 (stereo not drawn)	-16%	-25%[46.1 µM]	x	u	x	x	-2.2%	x
COc1ccc(-c2[nH]ncc2C=O)cc1OC	-10%	-2%	19%	x	5%	x	x	-12%[46.1 µM]
CC(Sc1ccccc1)C(=O)N1CCN(S(=O)(=O)c2ccccc2)CC1 (stereo not drawn)	-28%	-2%	-11%	x	2%	-4%	x	4%
O=C1CC2(CCCC2)C(=O)N1CN1CCN(S(=O)(=O)c2ccc(F)cc2F)CC1	-7%	13%	15%	x	11%	x	x	-2%

Further records follow.
SMILES	2A StopGo	Lassa entry inh	RE007 growth inh	Cruzain noTriton	SARS PLP yeast	NS1 function inh	Cruzain inh Det	MARV entry inh
CSc1ccc(S(=O)(=O)N2CCC(C(=O)NCc3ccco3)CC2)cc1	-18%	-27%	9%	x	16%	10%	x	8%[46.1 µM]
CC1(C)CC(=O)C2=C(C1)N(c1ccccc1)C(=O)CC2c1ccc(O)cc1 (stereo not drawn)	12%	-5%	5%	x	-1%	x	x	-5%
Cc1cnn(C(=S)NCCc2ccccc2)c1	50%[activator]	10%	-5%	13µM*	0%	-88%	16µM*	2%
CCOC(=O)C1CCN(C2CCN(Cc3nc(-c4ccccc4)no3)CC2)CC1	u	u	-16%	x	1%	-3%	x	-21%[46.1 µM]
CCCCc1nn2c(=O)cc(COC(=O)C3CCCCC3)nc2s1	-23%	3%[46.1 µM]	x	-11%	x	x	-6.2%	x
CCCS(=O)(=O)N1CCC(C(=O)N2CCN(C(=O)OCC)CC2)CC1	9%	4%	-11%	-1%	7%	2%	6.5%	11%
COc1ccc2sc(N(Cc3cccnc3)C(=O)c3cccs3)nc2c1	u	u	x	1%	x	x	-4.5%	x
Cc1ccc(C(C(=O)Nc2ccc(C(C)C)cc2)N(C)C(=O)c2ccc(=O)[nH]c2)cc1 (stereo not drawn)	-30%	8%	4%	x	5%	x	x	u
CCCCOC(=O)c1ccc(NC(=O)c2cc3c(=O)n4cccc(C)c4nc3s2)cc1	-4%	u	x	-8%	x	x	-1.9%	1%[46.1 µM]
CCOc1ccc(N2CC(C(=O)NCc3ccc(C)n3C)CC2=O)cc1 (stereo not drawn)	-1%	5%	-2%	x	-2%	x	x	-28%[46.1 µM]
Cc1cc(C)n(-c2nc3c(c(=O)[nH]c(=O)n3C)n2CC(O)c2ccccc2)n1 (stereo not drawn)	-9%	-20%	-3%	1%	7%	17%	9.2%	u
CCSc1nc(O)c(C2OC(=O)c3c2ccc(OC)c3OC)c(=O)n1CC (stereo not drawn)	u	11%	3%	6%	-1%	-18%	6.0%	-1%
COc1ccc(CCN2C(=O)N(c3ccc(C)cc3)C(=O)C2CC(=O)Nc2ccc(F)cc2)cc1 (stereo not drawn)	41%[activator]	u	x	5%	x	x	-5.2%	-12%[46.1 µM]
O=S(=O)(c1ccccc1)N1CCN(Cc2ccccc2C(F)(F)F)CC1	-22%	-5%	-3%	-5%	-6%	-90%	-5.0%	-24%
COC(=O)c1c(SCC(=O)Nc2cc(C)cc(C)c2)[nH]c2ccccc2c1=O	-22%	6%[46.1 µM]	x	u	x	x	-13%	14%[46.1 µM]
COc1ccc2oc(C(=O)Nc3nccs3)c(C)c2c1	3%	u	-22%	x	x	x	x	24%[46.1 µM]
COc1ccc(CN2CCn3nc(C(=O)NC(C)C)cc3C2=O)cc1	1%	3%	7%	x	-1%	-1%	x	-2%[46.1 µM]
Cc1ccc2cc(/C=C/C(=O)c3ccco3)c(Cl)nc2c1	-13%	-5%	-11%	x	1%	-41%	x	4%[46.1 µM]
COc1ccc(N2C(=O)CC3(CCCC3)CC2=O)cc1	4%	1%	-19%	1%	25%	18%	2.0%	6%
CC(=O)Nc1nnc(SCc2ccccc2F)s1	50%[activator]	23%	-13%	6%	-2%	-48%	1.7%	17%
O=C(CCc1nnc(Cc2ccc3c(c2)OCO3)o1)NCc1nc2ccccc2s1	-4%	5%	-9%	x	0%	0%	x	-1%
COc1ccc(C(c2nnnn2Cc2ccccc2)N2CCN(c3ccccc3)CC2)cc1 (stereo not drawn)	0%	u	13%	-7%	-8%	-2%	-0.9%	u
Cc1occc1-c1nnc(SCC(=O)Nc2ccccc2)n1CCc1ccccc1	-24%	-3%	-4%	-8%	-3%	-32%	-4.3%	-6%
CC(C)N1C(=O)c2ccccc2C1C(=O)NC1CCCCCC1 (stereo not drawn)	1%	0%	15%	-7%	7%	u	0.3%	5%
O=C(OCC(=O)N1CCC(c2ccccc2)=N1)c1ccc([N+](=O)[O-])s1	-7%	-2%	16µM*	x	-27%	x	x	-11%

The list goes on.
SMILES	2A StopGo	Lassa entry inh	RE007 growth inh	Cruzain noTriton	SARS PLP yeast	NS1 function inh	Cruzain inh Det	MARV entry inh
Cc1nc2cc(CO)ccc2n1C	15%	2%	10%	5%	-1%	-10%	1.8%	16%[46.1 µM]
Cc1coc2cc3oc(=O)c(CCC(=O)NCCCN4CCCC4=O)c(C)c3cc12	7%	x	-3%	x	1%	12%	x	x
COc1cc(C(C(=O)NC2CCCCC2)N(C(=O)c2snc(C(N)=O)c2N)c2ccc(C)cc2)ccc1O (stereo not drawn)	u	u	1%	x	2%	u	x	u
COC(=O)c1ccc(Cn2c(=O)cc(C(F)(F)F)c3c(C)nn(C)c32)cc1	-20%	17%[46.1 µM]	x	-3%	x	x	-2.8%	x
O=C(NN1CCOCC1)c1ccc(Cl)s1	17%	-12%[46.1 µM]	0%	x	-1%	-2%	x	2%[46.1 µM]
Cc1ccc(Cc2cn3cc(-c4ccccc4)nc3s2)cc1	-49%	-29%[46.1 µM]	x	-6%	x	x	-1.9%	u
COc1ccc(CN2CCN(C(=O)CCC(=O)c3ccc(C)s3)CC2)cc1OC	-20%	-1%	-1%	x	-2%	x	x	15%
Cc1onc(-c2ccccc2)c1CNC(=O)CN1C(=O)c2ccccc2C1=O	-14%	x	8%	x	-1%	-3%	x	x
CCn1c(SCC(=O)NC2CCCCC2)nnc1-c1cccs1	-11%	-13%	5%	-6%	0%	-22%	5.8%	-8%
CC(C)(O)C(=O)NN(Cc1ccccc1)c1ccccc1	-6%	-3%	2%	10%	-5%	2%	1.9%	u
CC(C)n1c(SCC(=O)N2CCCC2)nc2c1c(=O)n(C)c(=O)n2C	3%	-10%	8%	3%	7%	-1%	3.7%	27%
COc1ccc(C(=O)CSc2nnc(CNC(=O)c3ccco3)n2C)cc1	-1%	x	1%	x	1%	-2%	x	u
Cc1ccc2nc(COC(=O)CNC(=O)c3ccccc3)cn2c1	0%	-16%	-14%	x	1%	x	x	-9%

Bioassay records from PubChem.
